Screens (PubChem)
JMJD2A Tudor – blocks the human JMJD2A Tudor domain | O75164 | hit rate 4.4% among 390,000 | AID 504339 | AlphaScreen JMJD2A-Tudor / H3K4me3 peptide binding | Potency, µM (highest dose often 114 µM), without a hit: at the top dose activity change, negative = inhibition, usual class: inhibitors; note: % is set by controls: 0 for no effect and ±100 for the full control effect; nearly all actives have a fitted effect of over 50% in size
POLB inh – inhibitors of human DNA polymerase beta; Potency, µM (highest dose often 114 µM), for the others: top-dose activity change, negative = inhibition, hits mostly inhibitors; Pol beta primer extension/strand displacement, fluorescence kinetic; P06746; hit rate 1.3% among 340,000; note: % is set by controls: 0 for no effect and ±100 for the full control effect
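Pol beta (10 nM) and compounds were preincubated 15 min at room temperature, then 50 nM substrate (final) started primer extension/strand displacement. Reads were taken at 0 and 10 min; concentration-response data were fitted to a four-parameter Hill equation.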
G9a block – inhibitors of human histone lysine methyltransferase G9a | G9a H3K9 monomethylation, AlphaScreen, 2 h | Potency, µM (top dose mostly 102 µM), for the others: top-dose activity, negative = inhibition, actives largely listed as inhibitors | hit rate 8.8% among 350,000; note: % is set by controls: 0 for no effect and ±100 for the full control effect; nearly all actives have a fitted effect of over 75% in size
Target sequence (Q96KQ7 913-1193 limits assumed): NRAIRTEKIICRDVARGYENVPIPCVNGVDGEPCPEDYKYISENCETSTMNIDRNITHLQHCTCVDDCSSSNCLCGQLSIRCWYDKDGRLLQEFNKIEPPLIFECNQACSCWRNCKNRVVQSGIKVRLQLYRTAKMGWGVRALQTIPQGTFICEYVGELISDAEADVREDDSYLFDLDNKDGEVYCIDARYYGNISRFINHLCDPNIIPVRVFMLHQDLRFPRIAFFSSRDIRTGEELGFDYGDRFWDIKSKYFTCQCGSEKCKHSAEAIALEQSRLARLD
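Enzyme 20 nM + cpd, 15 min RT; add b-H3K9 pep 500 nM / SAM 20 uM; 2 h RT; anti-H3K9me1 Ab 0.5 ug/mL + SA donor / anti-rabbit acceptor beads 20 ug/mL each, 10 min; AlphaScreen read.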
POLI inh – inhibitors of human DNA polymerase iota. Pol iota fluorescent replication assay, 10 min. Potency, µM (highest dose often 115 µM), inactives show at the highest dose activity, negative = inhibition, usual class: inhibitors. hit rate 1% among 390,000
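Pol iota at 10 nM preincubated 15 min with compounds at room temperature; reaction started with fluorescent substrate, 50 nM final. Fluorescence read kinetically at 0 and 10 min; buffer-only wells as negative control.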
POLK inh – blocks human DNA polymerase kappa activity; Q9UBT6; purified Pol kappa, fluorescent DNA synthesis assay, 10 min; Potency, µM (top dose mostly 107 µM), for inactives: at the highest dose activity, negative = inhibition, most hits filed as inhibitors; hit rate 0.53% among 400,000; AID 588579; note: % is set by controls: 0 for no effect and ±100 for the full control effect
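Here, compound and 10 nM enzyme are combined for 15 min at room temperature; adding 50 nM substrate (final) starts DNA synthesis, tracked by fluorescence at 0 and 10 min against buffer-only wells.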
APE1 inh – blocks human APE1 abasic DNA cleavage. P27695. recombinant APE1, TAMRA/BHQ-2 abasic DNA cleavage fluorescence. Potency, µM (series often up to 65.8 µM), without a hit: at the highest dose activity change, negative = inhibition, usual class: inhibitors. hit rate 0.35% among 350,000;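 note: plate controls were vehicle for no effect and reference inhibitor for full effect; nearly all actives have a fitted effect of over 55% in size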
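Readout is kinetic fluorescence (ex 525, em 598 nm) from cleavage of 50 nM TAMRA/BHQ-2 THF abasic duplex by 0.75 nM APE1, compound added 15 min beforehand at RT.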
BLM helicase inh – blocks DNA unwinding by human BLM helicase. recombinant BLM DNA unwinding, fluorescence dequenching. hit rate 0.2% among 350,000. Potency, µM (series often up to 56.1 µM), for inactives: top-dose activity change, negative = inhibition, usual class: inhibitors. AID 2528. P54132;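 note: plate controls were vehicle for no effect and no enzyme for full effect; nearly all actives have a fitted effect of over 35% in size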
Pol eta inh – blocks human DNA polymerase eta activity; hit rate 1.2% among 390,000; recombinant Pol eta, fluorescent DNA replication assay; Potency, µM (series often up to 114 µM), without a hit: at the top dose activity change, negative = inhibition, hits mostly inhibitors; Q9Y253; note: % is set by controls: 0 for no effect and ±100 for the full control effect
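Fluorescent replication assay: 50 nM final substrate added after a 15 min room-temperature compound preincubation with 10 nM enzyme. Signal taken at 0 min and again at 10 min.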
Starred values were filed as active, the others as inactive; ? = inconclusive; nt = no result given; [ ] = remark or other dose. Calls come from the whole dose curve; as a rule, active = well fitted curve in the direction sought with a large enough effect; inconclusive = small, poorly fitted or top-dose-only effect, or another doubt; inactive = no such curve, though single readings can be large; an effect the other way counts as inactive or inconclusive. Potency is the fitted concentration of half-maximal effect. The list is partial; rates above refer to the full screens.

SMILES	JMJD2A Tudor	POLB inh	G9a block	POLI inh	POLK inh	APE1 inh	BLM helicase inh	Pol eta inh
CSc1n[nH]c(NCc2cccs2)n1	-21%	-17%	8%[12.7 µM]	21%	-5%	6%	-5%	8%
COc1ccc(NC(=O)CN2CCOCC2)cc1	?	25%	?	3%	3%	-2%	2%	-10%
COc1ccc(-n2c(Cc3cccn3C)nnc2SCC(=O)Nc2cc(C)cc(C)c2)cc1	?	?	?	1%	-28%	-4%	-10%	-25%
N#Cc1c[nH]n2c(=O)c3c(nc12)CCC3	-12%	1%	18µM*	8%	-8%	12%	-6%	-9%
FC(F)Sc1nc(-c2ccccc2)c(-c2ccccc2)n1C(F)F	14%	11%[57.1 µM]	35µM*	13%	-18%	-5%	-8%	-16%
COCC(C)n1c(C)cc(C(=O)CSc2nnnn2-c2ccc(O)cc2)c1C (stereo not given)	?	19%	?	0%	-4%	22%	-5%	-8%
CN1CCc2c(sc3c2C(=O)NC(c2ccc(-c4ccc(Cl)cc4)o2)N3)C1 (stereo not given)	?	-2%	nt	82%[activator]	-2%	-9%	-5%	-22%
O=c1c(Cl)c(NS(=O)(=O)c2ccccc2)cnn1-c1ccccc1	-1%[11.4 µM]	0%	-34%	14%	0%	-1%	2%	?
FC(F)(F)c1ccc(N2CCN(c3cc(-c4ccccc4)nc4ncnn34)CC2)nc1	-7%	-14%	42%	6%	2%	3%	-7%	-10%
CCOC(=O)Nc1ccc2c(c1)N(C(=O)CCN1CCN(C)CC1)c1ccccc1S2	?	-20%	45µM*	?	-4%	-6%	1%	0%

A second format for ten compounds above.
Molecule | JMJD2A Tudor | POLB inh | G9a block | POLI inh | POLK inh | APE1 inh | BLM helicase inh | Pol eta inh
CSc1n[nH]c(NCc2cccs2)n1 | -21% | -17% | 8%[12.7 µM] | 21% | -5% | 6% | -5% | 8%
COc1ccc(NC(=O)CN2CCOCC2)cc1 | ? | 25% | ? | 3% | 3% | -2% | 2% | -10%
COc1ccc(-n2c(Cc3cccn3C)nnc2SCC(=O)Nc2cc(C)cc(C)c2)cc1 | ? | ? | ? | 1% | -28% | -4% | -10% | -25%
N#Cc1c[nH]n2c(=O)c3c(nc12)CCC3 | -12% | 1% | 18µM* | 8% | -8% | 12% | -6% | -9%
FC(F)Sc1nc(-c2ccccc2)c(-c2ccccc2)n1C(F)F | 14% | 11%[57.1 µM] | 35µM* | 13% | -18% | -5% | -8% | -16%
COCC(C)n1c(C)cc(C(=O)CSc2nnnn2-c2ccc(O)cc2)c1C (stereo not given) | ? | 19% | ? | 0% | -4% | 22% | -5% | -8%
CN1CCc2c(sc3c2C(=O)NC(c2ccc(-c4ccc(Cl)cc4)o2)N3)C1 (stereo not given) | ? | -2% | nt | 82%[activator] | -2% | -9% | -5% | -22%
O=c1c(Cl)c(NS(=O)(=O)c2ccccc2)cnn1-c1ccccc1 | -1%[11.4 µM] | 0% | -34% | 14% | 0% | -1% | 2% | ?
FC(F)(F)c1ccc(N2CCN(c3cc(-c4ccccc4)nc4ncnn34)CC2)nc1 | -7% | -14% | 42% | 6% | 2% | 3% | -7% | -10%
CCOC(=O)Nc1ccc2c(c1)N(C(=O)CCN1CCN(C)CC1)c1ccccc1S2 | ? | -20% | 45µM* | ? | -4% | -6% | 1% | 0%

For convenience, some entries already given:
SMILES	JMJD2A Tudor	POLB inh	G9a block	POLI inh	POLK inh	APE1 inh	BLM helicase inh	Pol eta inh
FC(F)(F)c1ccc(N2CCN(c3cc(-c4ccccc4)nc4ncnn34)CC2)nc1	-7%	-14%	42%	6%	2%	3%	-7%	-10%
CCOC(=O)Nc1ccc2c(c1)N(C(=O)CCN1CCN(C)CC1)c1ccccc1S2	?	-20%	45µM*	?	-4%	-6%	1%	0%
